Screens from PubChem.
GLA inh pH 4.5: blocks human alpha-galactosidase A at pH 4.5. P06280. purified enzyme, 4-MU-alpha-Gal fluorescence, pH 4.5. activity change, negative = inhibition, % at 105 µM. 230,000 tested, under 10 active; inconclusive = small, poorly fitted or top-dose-only inhibition, or a rising curve; inactive = flat fitted curve, though single readings scatter; no compound was filed as active;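 also: 0% = full activity with enzyme and -100% = basal without enzyme; dose as in the result columns while the protocol names 77 µM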
miR-21 reporter: miR-21 reporter, rising signal; 340,000 tested, under 10 active; Potency, µM (series often up to 38.3 µM), inactives show at the top dose reporter change, positive = more light; HeLa miR-21 FLuc reporter, luciferase, 48 h; active = well fitted rising curve with a large enough effect; inconclusive = small, poorly fitted or top-dose-only effect; inactive = no such curve, though single readings can be large or run the other way;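 also: % of control where 0% means no effect; miR-21 action dims this reporter so a rising signal means less miR-21 action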
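Compounds were titrated across several concentrations (up to approximately 40 uM) and incubated 48 hours with HeLa miR-21-FLuc reporter cells (miR-21 target sequence downstream of FLuc, endogenous miR-21). Readout was firefly luciferase luminescence after lytic detection reagent.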
Rango dissoc inh: inhibitors of RanGTP-induced Rango-importin beta complex dissociation; O95149+P62826; Biochemical FRET Rango-importin beta, RanGTP-induced dissociation; 0.071% of 340,000 active; AID 540253; Potency, µM (titrated, usually from 46.1 µM), inactives show at the top dose activity change, negative = inhibition; active means falling FRET ratio curve, often poorly fitted, with flat reads before Ran was added; inconclusive means other falling curves, or compound fluorescence or quenching; inactive means flat or rising ratio curve;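 also: potency is read from the fitted curve at half-maximal effect; % of control where 0% means no effect; nearly all actives have a fitted effect of over 45% in size; -100% = wells without RanGTP and RCC1; the record marks most hits as doubtful in a second field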
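Two FRET readings bracket the reaction: one 5 min after compound meets Rango–importin beta, another 45 min after RanGTP-RCC1 (0.6 uM Ran, 0.2 uM RCC1, 2 mM GTP) is added. Only the second defines inhibition.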
Rango-impB inh: inhibitors of Rango-importin beta complex formation | AID 540263 | Q14974 | Potency, µM (series often up to 92.2 µM), for the others: top-dose inhibition of complex formation | Rango CFP/YFP FRET sensor + importin beta, 45 min | 0.031% of 340,000 active; active = rising FRET ratio curve, often small or poorly fitted; inconclusive = mostly compound fluorescence or quenching in the first reads; inactive = flat curves in all reads;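 also: potency is read from the fitted curve at half-maximal effect; 0% = DMSO wells and 100% = buffer wells lacking importin beta; nearly all actives have a fitted effect of over 15% in size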
Target sequence (Q14974 whole entry, looked up): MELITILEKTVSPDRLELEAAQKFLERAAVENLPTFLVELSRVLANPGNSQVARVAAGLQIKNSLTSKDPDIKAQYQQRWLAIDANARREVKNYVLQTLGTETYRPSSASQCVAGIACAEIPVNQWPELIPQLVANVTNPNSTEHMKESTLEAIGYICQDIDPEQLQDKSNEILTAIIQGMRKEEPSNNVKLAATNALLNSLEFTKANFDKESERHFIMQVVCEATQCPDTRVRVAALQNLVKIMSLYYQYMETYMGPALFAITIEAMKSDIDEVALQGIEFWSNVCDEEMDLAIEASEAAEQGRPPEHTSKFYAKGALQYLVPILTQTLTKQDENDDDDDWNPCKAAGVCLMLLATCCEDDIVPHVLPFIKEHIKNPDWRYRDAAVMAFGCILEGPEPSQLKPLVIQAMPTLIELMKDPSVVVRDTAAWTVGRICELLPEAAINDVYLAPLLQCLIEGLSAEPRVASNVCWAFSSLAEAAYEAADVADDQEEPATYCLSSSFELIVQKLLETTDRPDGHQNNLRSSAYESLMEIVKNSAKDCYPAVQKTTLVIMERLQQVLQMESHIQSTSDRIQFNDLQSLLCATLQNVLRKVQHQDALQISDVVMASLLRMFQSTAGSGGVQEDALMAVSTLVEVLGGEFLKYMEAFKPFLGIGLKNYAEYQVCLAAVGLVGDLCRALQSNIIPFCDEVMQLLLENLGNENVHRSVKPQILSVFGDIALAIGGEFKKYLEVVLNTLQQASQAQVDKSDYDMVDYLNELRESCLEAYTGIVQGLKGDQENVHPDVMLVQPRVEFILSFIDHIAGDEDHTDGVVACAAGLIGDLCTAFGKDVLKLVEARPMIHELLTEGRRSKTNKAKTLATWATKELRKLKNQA
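Inhibition scored from the CFP 486 nm/YFP 530 nm FRET ratio 45 min after adding 0.125 microM importin beta to 50 nM Rango biosensor preincubated 5 min with compound (room temperature, PBS with DTT, Tween-20, BSA). No-importin wells as positive control.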
Starred values were filed as active, the others as inactive; u = inconclusive; x = no result given; & = joins results of further samples. The list is partial, so the mix of outcomes need not match the whole.

SMILES	GLA inh pH 4.5	miR-21 reporter	Rango dissoc inh	Rango-impB inh
Cc1cccc(Cn2cc(/C=C/[N+](=O)[O-])c3ccccc32)c1	-1	u	-1%	u
CCC(Oc1ccccc1OC)C(=O)Nc1ccc2c(c1)OCO2 (stereo not given)	x	-9%	-11%	-3.2%
Cc1ccc(S(=O)(=O)NC(C(=O)OCC(=O)NC(=O)c2cccn2C)C(C)C)cc1 (stereo not given)	-4	-3%	-11%	-5.8%
Cc1cc(=O)oc2cc(NC(=O)C(CCCN=C(N)N)NC(=O)OCc3ccccc3)ccc12 (stereo not given)	x	2%	u	1.8%
Cn1nnnc1SCc1ccc(C(=O)Nc2nccs2)cc1	3	-27%	-1%	3.3%
Cc1noc(/C=C/c2ccccn2)c1[N+](=O)[O-]	x	u	10%	2.4%
CC(=O)Nc1ccc(S(=O)(=O)NC2=NCN(c3cccc([N+](=O)[O-])c3)CN2)cc1	x	-1%	26%	-1.9%
COc1ccc(-c2c(NC(=O)c3ccco3)oc3c(C)cccc3c2=O)cc1OC	x	6%	38%	-3.6%
CCCNS(=O)(=O)c1ccc(NC(=O)c2cccnc2)cc1	2	-6%	-29%	u
COc1ccc(NC(=O)c2ccc(NC(=O)COC(=O)c3cnc(C)cn3)cc2)cc1	x	x	-10%	-0.6%
C=CCN(CC=C)C(=S)NCCc1ccc(OC)c(OC)c1	6	-3%	5%	0.6%
Cc1cc(=O)oc2cc(OCC(=O)OCC(=O)NC3CC3)ccc12	-2	-3%	1%	-0.4%
O=C(NCc1ccccc1)C(c1ccc(Cl)cc1)N(C(=O)c1csnn1)C1CC1 (stereo not given)	x	8%	-1%	0.0%
O=C(Oc1c(Cl)cc(Cl)c2cccnc12)c1ccco1	0	25%	9%	-6.3%
COC(C(=O)Nc1ccnn1C1CCN(Cc2ccccn2)CC1)c1ccccc1 (stereo not given)	x	-6%	-10%	u
CCN1/C(=C/c2sc(-c3ccccc3C)c[n+]2C)Sc2ccccc21	2	u	u	u
Nc1nnc(Cc2ccc(Cl)c(Cl)c2)s1	2	-6%	-16%	u
CC(=O)N/C(=N\c1nc(C)cc(C)n1)Nc1ccc2ccccc2c1	x	-57%	10%	-3.6%
Cc1ccccc1NC(=O)N1CCN(C/C=C/c2ccccc2)CC1	-17	-5%	25%	-0.8%
CCOc1ccc(C)cc1S(=O)(=O)n1cnc2ccccc21	x	16%	-10%	-3.9%
CCCCc1nc2ccccc2n1Cc1nnc2n1-c1ccccc1SC2	0	-18%	10%	u
CCN(c1ccccc1)S(=O)(=O)c1cc([N+](=O)[O-])ccc1N	9	-39%	8%	6.8%
O=C(CN1C(=O)c2ccccc2S1(=O)=O)Nc1cccc(S(=O)(=O)N2CCCCC2)c1	x	x	10%	3.0%
CC(C)OC(=O)c1c(NC(=O)c2cccs2)sc2c1CCCC2	-1	-2%	u	3.6%
CCSc1nc2ccccc2n1Cc1cccc([N+](=O)[O-])c1	-29	-32%	23%	-1.0%
COc1cccc(-c2nnc(SCC(=O)Nc3cc(C)on3)o2)c1	-4	-26%	2%	-1.1%
O=C(COn1nnc2ccc(S(=O)(=O)N3CCOCC3)cc21)NCCc1ccccc1	x	x	0%	1.3%
Cc1ccc(S(=O)(=O)NCC(=O)N/N=C/c2ccccc2O)cc1	-10	24%	1%	0.1%
O=c1cc(-c2ccccc2Cl)oc2c(NS(=O)(=O)c3cc(Cl)cc(Cl)c3O)ccc(O)c12	-7&1	u	9%	1.5%
CCc1c(C)sc(NC(=O)c2ccc(Br)o2)c1C(=O)OC	-7	-1%	5%	-9.4%
COCCCn1c(-c2ccc(S(=O)(=O)N3CCOCC3)cc2)csc1=Nc1ccccc1	0	1%&-16%	0%	0.2%
COc1ccc(-c2c(-c3ccccc3)n(C)c3ccccc23)cc1	x	x	-21%	u
N#CCCN/N=C(/Cc1nc2ccccc2[nH]1)c1cccc(Cl)c1	-9	-19%	u	u
Cc1ccccc1-c1cc(=O)c2c(O)cccc2o1	1	-26%	4%	-0.2%
COCc1ccc(C(=O)N2CCCC(C(=O)c3cc(F)ccc3F)C2)s1 (stereo not given)	2	-1%	-6%	-4.3%
COc1ccc(N2CCn3c2nc2c3c(=O)n(CCc3ccccc3)c(=O)n2C)cc1	1	-5%	x	x
COc1ccc(C(=O)/C=C/C(=O)N(Cc2ccc3c(c2)OCO3)C(C(=O)NC2CCCCC2)c2ccncc2)c(O)c1 (stereo not given)	-11	1%	-4%	-3.6%
O=C(COC(=O)c1cc(Cl)ccc1Cl)NCCN1C(=O)CSC1=O	2	-6%	3%	-0.1%
COc1ccc(Cl)cc1NC(=O)CSc1nc(NS(=O)(=O)c2ccccc2)cc(=O)[nH]1	x	-2%	1%	-1.9%
Cc1ccc(NC(=O)C(=O)NCc2ccccn2)cc1	-4	-47%	-1%	8.5%
Cc1cc(=O)[nH]c(SCC(=O)NC2CCCc3ccccc32)n1 (stereo not given)	-6	2%	-4%	-0.3%
CCOC(=O)c1cnc(-n2nc(C)cc2C)nc1NNc1ncc(-c2ccccc2)cn1	-9	18%	-1%	1.9%
O=[N+]([O-])c1cc(C(F)(F)F)cc([N+](=O)[O-])c1Sc1n[nH]c(C(F)(F)F)n1	-5	2%	2%	-0.4%
O=C1NC[C@H](c2ccccc2)OC(=O)[C@@H](Cc2ccc(F)cc2)CC/C=C/C[C@H]1CC(=O)N(CCO)Cc1ccccc1	x	x	-4%	0.8%
O[C@@H]1COC(Nc2ccc(N=Nc3ccccc3)cc2)C[C@@H]1O (stereo not given in full)	-8	-33%	6%	1.3%
Cc1ccc2c(c1C)NC(=O)C21N2CCCC2C(C(=O)c2ccc3ccccc3c2)C12C(=O)Nc1ccccc12 (stereo not given)	-2	-4%	9%	0.4%
CCCCn1c(N)c(N(CCC(C)C)C(=O)C2CCCO2)c(=O)[nH]c1=O (stereo not given)	x	x	-2%	-0.8%
CCOC(=O)/C(C#N)=C\c1ccco1	-2	-7%	-19%	-2.0%
Cc1ccc(NC(=O)CSc2nnc(Cc3cccn3C)n2-c2ccc(F)cc2)cc1	7	-6%	0%	-3.4%
O=C1C2C3C=CC(C3)C2C(=O)N1c1nccs1 (stereo not given)	-7	-5%	8%	-0.1%
CCOC(=O)C1CCCCN1Cc1cn[nH]c1-c1ccc(F)cc1F (stereo not given)	1	-2%	-15%	-1.8%
COc1ccc(C(=O)OCC(=O)Nc2cccc(S(=O)(=O)NC3=NCCCCC3)c2)cc1[N+](=O)[O-]	x	x	2%	0.5%
CCOC(=O)c1sc(C)c2c(=O)n(CC(=O)c3ccc(Br)cc3)nnc12	-4	-3%	-4%	3.8%
CC(=O)c1sc2c(c1OC(=O)c1ccccc1)c(=O)n(-c1ccccc1)c(=S)n2-c1ccccc1	x	x	-9%	0.4%
O=C(c1ccc2c(c1)OCO2)C1CCCN(Cc2ccc3cccc(F)c3n2)C1 (stereo not given)	3	4%	8%	-0.8%
Cc1ccc(S(=O)(=O)NCCCNS(=O)(=O)c2ccccc2)cc1	x	5%	12%	-2.3%
COc1cccc(-c2cc(C(=O)N3N=C(C)CC3(O)C(F)F)c3ccccc3n2)c1 (stereo not given)	4	-5%	-6%	0.3%
O=C(CSC1=NS(=O)(=O)c2cc(Cl)ccc2N1)NCc1ccc(F)cc1	x	x	5%	0.2%
Cc1coc2c(C)c3oc(=O)c(CCC(=O)N(C)CC(=O)O)c(C)c3cc12	x	0%	-4%	-0.1%
N=c1oc2ccccc2cc1C(=O)Nc1ccc(F)cc1	x	-63%	0%	-2.4%

(further entries)
SMILES	GLA inh pH 4.5	miR-21 reporter	Rango dissoc inh	Rango-impB inh
CCCCOC(=O)c1ccc(NC(=O)c2cnc3n(c2=O)CCS3)cc1	-3	0%	11%	-2.4%
CCN(CC)c1ccc(NC(=O)CN2C(=O)CC(C)(C)S(=O)(=O)c3ccccc32)c(C)c1	4	-7%	-1%	0.3%
CCOC(Cn1c(CCCO)nc2ccccc21)OCC	-2	0%	-6%	-0.2%
O=S(=O)(N/N=C/c1ccc2c(c1)OCCO2)c1ccccc1	-8	-11%	13%	-3.8%
COc1ccc(N2CCN(C(CNS(=O)(=O)c3ccccc3)c3ccccc3)CC2)cc1 (stereo not given)	x	0%	-6%	4.1%
FC(F)(F)c1cnc(NNC(=S)Nc2ccc(Cl)cc2)c(Cl)c1	-6	u	3%	-1.0%
O=C(CCCc1c[nH]c2ccccc12)Nc1ncccc1O	x	-17%	-11%	-3.0%
CN(Cc1cnn(C)c1)Cc1nc(C(c2ccccc2)c2ccccc2)no1	0	0%	-12%	-0.2%
O=C(CCNC(=O)N1CCn2c1nc1ccccc12)NCc1ccc(F)cc1	x	0%	-7%	0.1%
CN(C)C(=O)c1ccccc1Sc1cc(Cl)ccc1Cl	6	-15%	3%	1.6%
CCc1ccc(NC(=O)C(C)OC(=O)C2CCN(c3ccc(C(F)(F)F)cn3)CC2)cc1 (stereo not given)	x	x	1%	0.7%
OC(CNCc1ccccc1Cl)C(F)(F)F (stereo not given)	5	1%	6%	3.0%
COc1cccc(CNS(=O)(=O)c2c(C)nc3scc(C)n3c2=O)c1	x	2%&-1%	-7%	-1.7%
O=C1CC(c2cccc(F)c2)c2c(c3ccccc3[nH]c2=O)O1 (stereo not given)	-2	-2%	-7%	0.8%
CN(C(=O)COC(=O)C1CCN(S(=O)(=O)c2cccs2)CC1)c1ccccc1	-5	2%	10%	0.3%
O=C(CN1CCN(c2ccc(F)cc2)CC1)N1N=CCC1c1ccccc1 (stereo not given)	1	0%	1%	-0.4%
O=C(c1cc(C2CC2)nn1-c1ccccc1)N1CCN(Cc2ccc(Cl)cc2)CC1	x	x	u	u
CCn1c(C)c(C)c2cc(C(=O)NCCN3CCOCC3)ccc21	x	-6%	0%	u
O=c1c([N+](=O)[O-])c(N2CCCCCC2)c2ccccc2n1-c1ccccc1	4	-11%	3%	3.6%
O=S1(=O)CCN(Cc2csc(-c3cccs3)n2)CC1	3	-21%	-17%	-3.6%
CC(C)Cn1c(-c2ccccc2F)n[nH]c1=S	0	1%	-10%	-3.1%
CCc1nc2sc3c(c2c(=O)n1N)CC(C)(C)OC3	2	-12%	0%	-4.0%
Cc1cccc(NC(=O)CCc2c(C)nc3ncnn3c2C)n1	-8	-4%	4%	-1.2%
CC(Oc1cc2oc(=O)c3c(c2cc1Cl)CCCC3)C(=O)NCc1ccccn1 (stereo not given)	x	-3%	-5%	-0.2%
CC1CCc2nc(NC(=O)c3ccc(S(=O)(=O)N4CCCc5ccccc54)cc3)sc2C1 (stereo not given)	-4	0%	11%	0.0%
CC(C)CC1NC(=O)N(CC(=O)c2ccc3c(c2)OCCO3)C1=O (stereo not given)	1	-42%	1%	-5.9%
CCN=c1scc(C)n1/N=C/c1cc(Br)c(O)c(OC)c1	-9	2%	-29%	u
COc1ccc(CN2C(=O)c3ccccc3C2=O)cc1C(=O)OCC(=O)NC1CCCCC1	-2	-4%	10%	1.7%
CC(=O)Nc1ccc(C2NC(=O)c3ccccc3O2)cc1 (stereo not given)	1	-8%	-10%	0.4%
O=C(Nc1ccc2ccccc2c1)c1ccc(Cl)cc1	x	-28%	0%	0.7%
Cc1ccc(C(=O)n2c(-c3ccccc3)cnc2SCC(=O)Nc2ccccc2)cc1	-8	-20%	-16%	6.0%
CC(=NCCc1c(C)[nH]c2ccc(C)cc12)C1=C(O)CC(c2ccccc2)CC1=O (stereo not given)	-14	19%	7%	-1.7%

Complete entries, looked up by structure:
CCn1c(C)c(C)c2cc(C(=O)NCCN3CCOCC3)ccc21 in the list: GLA inh pH 4.5: x; miR-21 reporter: -6%; Rango dissoc inh: 0%; Rango-impB inh: u
CC(=O)Nc1ccc(C2NC(=O)c3ccccc3O2)cc1 (stereo not given) in the list: GLA inh pH 4.5: 1; miR-21 reporter: -8%; Rango dissoc inh: -10%; Rango-impB inh: 0.4%
CC1CCc2nc(NC(=O)c3ccc(S(=O)(=O)N4CCCc5ccccc54)cc3)sc2C1 (stereo not given) in the list: GLA inh pH 4.5: -4; miR-21 reporter: 0%; Rango dissoc inh: 11%; Rango-impB inh: 0.0%
